# Assay outcomes as filed in PubChem BioAssay.
# Vaccinia Venus: inhibitors of vaccinia virus (Venus reporter). Vaccinia virus Venus reporter expression, fluorescence. Potency, µM (doses to about 36.5 µM), for inactives: at the highest dose activity change, negative = inhibition, actives largely listed as inhibitors. actives 0.46% (n = 330,000). AID 720580; active means well fitted inhibition curve with a large enough effect; inconclusive means small, poorly fitted or top-dose-only effect; inactive means no such curve, though single readings can be large or run the other way; tested in A549 cells; also: nearly all actives have a fitted effect of over 30% in size; inactives centre near -10
# VACV mCherry inh: vaccinia inhibition (mCherry reporter); Vaccinia virus mCherry reporter infection, fluorescence; about a quarter of the inactives have no number; Potency, µM (top dose mostly 36.5 µM), for the others: at the highest dose activity change, negative = inhibition, most hits filed as inhibitors; actives 0.63% (n = 310,000); AID 720579; active = well fitted inhibition curve with a large enough effect; inconclusive = small, poorly fitted or top-dose-only effect; inactive = no such curve, though single readings can be large or run the other way; tested in A549 cells; also: nearly all actives have a fitted effect of over 35% in size; inactives centre near -10
# * marks the source's active call; other numbers are inactive results; i = inactive; ? = inconclusive; . = no result given; [ ] = another dose, or the depositor's remark. % is scaled to controls: 0 for no effect and ±100 for the full control effect; potency is read from the fitted curve at half-maximal effect. This is a random part of the collection; overall some 0.87% were active at least once.
SMILES,Vaccinia Venus,VACV mCherry inh
COc1cc2c(cc1OC)[C@@H](NC(=O)CCc1ccccc1)[C@H](OCc1ccccc1)C2,-13%,-12%
COc1ccc(C(=O)NCC2(c3ccc(OC)c(OC)c3)CCCC2)cc1OC,-8%,i
CSc1ccc(-c2sc(Nc3ccccc3)n[n+]2-c2ccccc2)cc1,?,-14%
O=C1N(C2CCCC2)C[C@@H]2C[C@@H](c3cn[nH]c3-c3ccc(Cl)cc3)N3CCC[C@@]123,-7%,-12%
S=C(NC1CCCCC1)NN1CCCCCC1,-13%,-15%
O=c1oc(CCCO)cc2ccc(Br)cc12,-9%,-9%
Cc1cccc2cc(CN(CC3CCCO3)C(c3nnnn3Cc3ccco3)C(C)C)c(=O)[nH]c12 (stereo unspecified),?,.
COc1cccc(CNC(=O)COC(=O)c2nn(C)c(=O)c3ccccc23)c1,-4%,i
O=C(OCC(=O)N1CCC(Cc2ccccc2)CC1)c1cccnc1Cl,-12%,-13%
Cc1ccc(S(=O)(=O)CC(=O)N(CCCN2CCOCC2)c2nc3c(F)cccc3s2)cc1,-5%,i
COc1cccc(C(=O)Nc2cc(C)nn2-c2ccccc2)c1OC,-2%,44%[activator]
Cc1noc(C)c1S(=O)(=O)N1CCN(Cc2ccc3c(c2)OCO3)CC1,-8%,-4%
C(=C\c1ccccc1)/CSc1nnc(-c2ccncc2)n1Cc1ccco1,-1%,.
CCOC(=O)C1=C(C)N(C)C(=O)NC1c1ccccc1OC (stereo unspecified),-14%,.
COC(=O)CSc1nc(NC(C)=O)nc(C)c1Br,-10%,.
Cc1cc(C2=NNC(=Nc3ccc(S(=O)(=O)N4CCOCC4)cc3)SC2)c(C)n1C,4%,i
Cc1nc(N2CCN(C(=O)c3ccc(Cl)cc3)CC2)c(C#N)c2c1COC(C)(C)C2,?,.
CC(C(=O)Nc1ccc(S(=O)(=O)Nc2ncccn2)cc1)N1C(=O)c2ccccc2S1(=O)=O (stereo unspecified),4%,-10%
Cc1ccc(C(=O)c2nc3c(n2O)CCCC3)cc1,0%,.
CCOC(=O)c1nc(C)c(C(C)=O)s1,-12%,i
O=c1[nH]c(CN2CCN(c3ccccc3)CC2)nc2scc(-c3ccccc3)c12,0%,-5%
O=S(=O)(c1ccccc1)c1nc(-c2ccco2)oc1N1CCOCC1,-10%,-15%
O=C(CSc1cn[nH]n1)Nc1nc2ccccc2s1,-14%,1%
Cc1ccccc1Nc1cc(C(=O)NC2CCC(C)CC2)c2ccccc2n1 (stereo unspecified),-22%,-14%
CN1CCSc2ccc(C(=O)Nc3cccc(F)c3)cc21,-25%,?

# Single entries from the entries so far:
# `CCOC(=O)C1=C(C)N(C)C(=O)NC1c1ccccc1OC` (stereo unspecified) in Vaccinia Venus reads -14%
# `COc1cc2c(cc1OC)[C@@H](NC(=O)CCc1ccccc1)[C@H](OCc1ccccc1)C2` in VACV mCherry inh reads -12%

# (listing goes on)
SMILES,Vaccinia Venus,VACV mCherry inh
CCN1CCN(C(=O)Cc2coc3cc(C)cc(C)c23)CC1,-15%,.
CCN(CC)S(=O)(=O)c1ccc(OC(C)C)nc1,-12%,-8%
Cc1ccc(S(=O)(=O)c2nnn3c2nc(N2CCCC2)c2sccc23)cc1C,-17%,-7%
COc1ccc(CC(=O)NC(C)(C)CC(C)=O)cc1OC,-23%,.
O=S(=O)(c1ccc(Oc2ccc(S(=O)(=O)N(CCO)CCO)cc2)cc1)N(CCO)CCO,1%,-12%
CCN(Cc1ccncc1)C(=O)c1cc(Br)cc(Br)c1O,-1%,i
Cc1nc(N/N=C/c2ccccn2)sc1C,?,?
O=C(O)c1ccc(-c2nc(-c3ccccc3)c(-c3ccccc3)[nH]2)cc1,-7%,i
C[C@H](CO)N1C[C@H](C)[C@@H](CN(C)C(=O)Nc2ccc3c(c2)OCO3)Oc2ccc(NC(=O)Cn3cnnn3)cc2C1=O,-20%,i
Cc1cccc(/C=C2\Sc3ccc(C(=O)NCC4CCCO4)cc3N(C)C2=O)c1 (stereo unspecified),-25%,-6%
COc1cc(/C=C(\C#N)C(=O)Nc2ccccn2)ccc1O,-8%,-13%
C/C(=N\NC(=O)c1nnn(-c2nonc2N)c1COc1ccc(F)cc1)c1ccc(Cl)cc1,0%,-13%
Cc1c(C)c2c(OCC(=O)NCCCO)cc3c(c2oc1=O)CCC(C)(C)O3,-4%,1%
O=C(Nc1ccc(C(=O)N2CCOCC2)cc1)c1ccccc1Cl,-2%,i
CC(=O)CC(c1ccccc1[N+](=O)[O-])c1c(O)c2ccccc2oc1=O (stereo unspecified),-20%,-3%
Cc1ccccc1Nc1nnc(SCC(=O)Nc2ccccc2[N+](=O)[O-])s1,-19%,-4%
COc1ccc(CC2(CO)CCN(C(C)Cc3ccc(Cl)cc3)CC2)cc1 (stereo unspecified),-22%,-1%
O=C(NCC1CCCO1)c1cc(C(=O)C2CCCCC2)c[nH]1 (stereo unspecified),-9%,-7%
COc1ccccc1N1CCN(C2CCN(S(=O)(=O)c3ccc(C)cc3)CC2)CC1,?,-19%
COc1ccccc1C(=O)NCC[N+](C)(C)C,9%,15%
COC(=O)c1sccc1NC(=O)c1cccc(Cl)c1,-13%,i
c1ccc(C(c2ccccc2)c2ccncc2)cc1,-19%,-7%
C[C@H]1CN(S(=O)C(C)(C)C)[C@@H](CCO)/C1=C\c1ccccc1 (stereo partly specified),-8%,i
COc1cccc(CNC(=O)c2c(OC)cc(=O)n3c2CCN(C(=O)c2ccc(C)cc2C)CC3)c1,9%,-3%
CC1CCC(N2CCN(c3ncccn3)CC2)C1 (stereo unspecified),-20%,.
# Next section:
SMILES,Vaccinia Venus,VACV mCherry inh
CCCCn1c(S(=O)(=O)O)nc2ccccc21,-16%,-16%
CCN(CC)S(=O)(=O)c1ccc(N(C)CCc2ccc(OC)c(OC)c2)nc1,-16%,-19%
CCCOc1ccc(F)cc1-c1cc(C(=O)Nc2ccc(OC)cc2C)[nH]n1,23%,4%
Cc1ccc(NC(=O)CCCNC(=O)c2ccc(Cl)cc2)c(Br)c1,-19%,-30%
Cc1ccc2nc(-c3cccs3)c(Nc3ccc4c(c3)OCCO4)n2c1,-3%,i
CCc1ccc(NC(=O)CCn2nc(-c3ccccc3OC)c3c(C)cc(C)nc32)cc1,-10%,-19%
Cc1ccc(S(=O)(=O)NCCC(=O)OCC(=O)N2CCCC2=O)cc1C,-8%,-13%
CC(C)Oc1ccc(CNC(=O)C2CCCN(S(=O)(=O)c3ccc4c(ccn4C)c3)C2)cc1 (stereo unspecified),?,?
COc1ccc(Oc2ccc(-c3ccn[nH]3)cc2)cc1,-14%,-18%
CCCCn1c(N)c(N(CC(C)C)C(=O)c2ccc(Cl)c(S(=O)(=O)N3CCCC3)c2)c(=O)[nH]c1=O,-15%,-21%
COc1ccc(Cc2c3cc(OC)c(OC)cc3cc[n+]2C)cc1OC,-7%,i
O=C(Nc1ccccn1)c1cc(-c2cccc(Cl)c2)nc2ccccc12,-14%,i
Cn1nnnc1SCC(=O)N1CCN(S(=O)(=O)c2ccc(Cl)cc2)CC1,-8%,-14%
Cc1sc2ncnc(SCC#N)c2c1C,-4%,i
COc1ccc(CCNC(=O)C2CC2)cc1OC,-12%,i
Cc1nc2nc(SCC(=O)NC3CCC(C)CC3)nn2c(C)c1Cc1ccccc1Cl (stereo unspecified),-6%,i
CCOC(C(=O)OCC(O)CN(CC)CC)(c1ccccc1)c1ccccc1 (stereo unspecified),-23%,?
COc1cccc(CNC(=O)CCn2cccn2)c1,-7%,-7%
CCc1nc2c(OCc3ccc(F)c(F)c3)cccn2c1N(C)C(=O)c1ccncc1,-3%,2%
O=C(CC1N=C2c3ccccc3N=C(SCc3cccc(Cl)c3)N2C1=O)NC1CCCCC1 (stereo unspecified),-17%,-20%
CCCCNc1c(-c2ccc(OC)c(SC(C)CC)c2)nc2ccc(Cl)cn12 (stereo unspecified),-14%,-10%
N#Cc1cnn2ccc(-c3ccc4c(c3)CCC4)nc12,-19%,-22%
c1ccc(N2CC[N+]3(CCCC3)CC2)nc1,0%,-1%
CC(=O)Nc1ccc(C(=O)COC(=O)c2c(C)noc2C)c(F)c1,-14%,-2%
O=C(CSc1nc2c([nH]c3ccccc32)c(=O)n1-c1ccc(F)cc1)Nc1ccc2c(c1)OCO2,-3%,9%
# Next section:
SMILES,Vaccinia Venus,VACV mCherry inh
Cc1ccc(S(=O)(=O)N2CC(O)C[C@H]2C(=O)OCC(=O)Nc2ccc(N3CCCCC3)cc2)cc1C (stereo partly specified),-22%,-1%
O=C(Nc1ccc(F)cc1)N1CCC(c2nc3c(nnn3Cc3ccccc3Cl)c(=O)[nH]2)CC1,-5%,-4%
C=CCN1C(=O)c2cccc3c(N4CCCCC4)ccc(c23)C1=O,15%,4%
CCSc1ccccc1C(=O)N1CCN(c2nc3ccccc3s2)CC1,-16%[7.34 µM],i[7.34 µM]
CC(=O)c1cnc(-c2ccccn2)s1,-5%,-7%
CN(C)CCCOc1ccc(-c2ccc3nccn3c2)cn1,3%,33%[activator]
COc1cccc(NC(=O)CSc2nnc(Cc3ccc(C)cc3)c(=O)n2N)c1,-15%,i
Cc1ccccc1OCC(=O)OCc1cc(=O)n2nc(C3CCCCC3)sc2n1,5%,-5%
C=CCn1c(=NC(=O)c2ccccc2[N+](=O)[O-])sc2cc(S(C)(=O)=O)ccc21,-15%,i
CCCCn1c(=O)[nH]c(=O)c2c(C(=O)OCC)cc(-c3ccc(OC(F)F)cc3)nc21,-18%,i
CCOC(=O)C1CCN(CC(=O)N2CCc3ccccc32)CC1,7%,-9%
COc1ccc(NC(=O)c2c(C)noc2C(C)C)cc1S(=O)(=O)N1CCCCC1,-5%,i
COc1ccc(CCNC(=O)CS(=O)(=O)Cc2nc(-c3ccc(C)cc3)oc2C)cc1OC,-26%,i
COc1ccc(CCNC(=O)CCCn2c(=S)[nH]c3ccsc3c2=O)cc1OC,-4%,-6%
COc1cc(/C=C/C(=O)N2CCN(C)CC2)cc(S(=O)(=O)N2CCc3ccccc32)c1OC,-5%,-13%
C=Cc1ccc(COc2ccc3oc(-c4ccccc4)c(C(=O)OCC)c3c2)cc1,-1%,-13%
Cc1ccccc1CC1SC(N=C(N)N)=NC1=O (stereo unspecified),-16%,i
C/C(CC(=O)Nc1ccc2c(c1)OCO2)=N\NC(=O)c1ccccc1N,5%,i
CN(CCOc1ccccc1)C(=O)c1cc(S(=O)(=O)N2CCOCC2)c(Cl)cc1Cl,-18%,i
CCN1CCN(C(=O)CS(=O)Cc2nc(-c3cccc(C)c3)oc2C)CC1 (stereo unspecified),-10%,0%
COc1cccc(CC(NC(C)=O)C(=O)NC2CCN(C(=O)C3CCCCC3)CC2)c1OC (stereo unspecified),-8%,-12%
Cc1cc(C(=O)Nc2ccccc2)oc(=O)c1,-2%,i
O=C(C1CCN(S(=O)(=O)c2cccs2)CC1)N1CCCC(C(F)(F)F)C1 (stereo unspecified),-22%,-14%
COC(=O)c1cc2sc(Cl)cc2n1Cc1c(C)cc(C)cc1C,-1%,-13%
COc1ccc2c(c1)cc(C(O)c1ccccn1)n2S(=O)(=O)c1ccccc1 (stereo unspecified),-13%,-9%

# Arranged by number of heavy atoms (highest first): part of the list above
SMILES,Vaccinia Venus,VACV mCherry inh
CCSc1ccccc1C(=O)N1CCN(c2nc3ccccc3s2)CC1,-16%[7.34 µM],i[7.34 µM]
C=CCN1C(=O)c2cccc3c(N4CCCCC4)ccc(c23)C1=O,15%,4%
CCOC(=O)C1CCN(CC(=O)N2CCc3ccccc32)CC1,7%,-9%

# Another view of two compounds above.
# Every second line gives: Vaccinia Venus | VACV mCherry inh
- O=C(Nc1ccc(F)cc1)N1CCC(c2nc3c(nnn3Cc3ccccc3Cl)c(=O)[nH]2)CC1
  -5% | -4%
- C=CCN1C(=O)c2cccc3c(N4CCCCC4)ccc(c23)C1=O
  15% | 4%

# The list goes on:
SMILES,Vaccinia Venus,VACV mCherry inh
Cc1ccc(N/C(=C\C(=O)c2ccccc2)C(=O)O)cc1,10%,i
O=C1CN(C(=O)c2cc(F)cc(F)c2)c2ccccc2N1,-20%,-9%
CCCCC/C=C\C\C=C/C=C/C=C/[C@@H](SCC(NC(C)=O)C(=O)O)[C@@H](O)CCCC(=O)O (stereo partly specified),-17%[0.293 µM],-22%[0.293 µM]
O=C1c2ccccc2C(c2nc3ccccc3[nH]2)N1Cc1ccco1 (stereo unspecified),-11%,11%
O=C(Nc1ccn(Cc2ccccc2)n1)c1cccc(Cn2cc([N+](=O)[O-])cn2)c1,-14%,-14%
Cc1cccc(N2CCN(C(=O)C3CCN(S(=O)(=O)c4cn(C)cn4)CC3)CC2)c1C,-16%,-21%
COc1ccccc1C(=O)N/C(=C\c1ccccc1)C(=O)NC(Cc1ccccc1)C(=O)O (stereo unspecified),-5%,-1%
CCOc1ncccc1C(=O)OCC(=O)Nc1cccc(S(N)(=O)=O)c1,-1%,i
O=C(COC(=O)CSc1ccc2ccccc2c1Br)NC1CC1,-5%,i
COc1cc(C(=O)OCC(=O)N2c3ccccc3NC(=O)C2(C)C)ccc1OCC(C)C,?,-21%
CN1C2CCC1/C(=C/c1cccn1C)C(=O)/C2=C\c1cccn1C,99%[activator],-15%
O=C(NCc1ccco1)[C@@H]1CSC2c3ccccc3C(=O)N21 (stereo partly specified),8%,.

# Rewritten field by field: part of the list above.
Cc1ccc(N/C(=C\C(=O)c2ccccc2)C(=O)O)cc1
  Vaccinia Venus: 10%	VACV mCherry inh: i
O=C1CN(C(=O)c2cc(F)cc(F)c2)c2ccccc2N1
  Vaccinia Venus: -20%	VACV mCherry inh: -9%
CCCCC/C=C\C\C=C/C=C/C=C/[C@@H](SCC(NC(C)=O)C(=O)O)[C@@H](O)CCCC(=O)O (stereo partly specified)
  Vaccinia Venus: -17%[0.293 µM]	VACV mCherry inh: -22%[0.293 µM]
